Beta apoptosis = inhibitors of cytokine-induced beta cell apoptosis, primary screen, luminescence | INS-1E cytokine-induced death, ATP luminescence, 48 h; percent of positive-control rescue, neutral wells zero | protection from apoptosis, % (test concentration not listed) | hit rate 0.8% among 300,000 | AID 435005, 2010;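 active = all replicates at 75% or more, or half of them and the mean; inconclusive = half reach 75% but not the mean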;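 also: 0% = cytokine-treated negative control wells and 100% = positive control rescue; higher means more ATP so stronger rescue from cytokine killing; wells of about 40 µL received 100 nL stock; the first replicate is given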
Vif TR-FRET = inhibitors of Vif binding to APOBEC3G peptide, primary screen, biochemical, TR-FRET, GST-Vif 1-94, biotin-A3G peptide, dose response retest (AID 1117319) | hit rate 0.57% among 260,000 | TR-FRET GST-Vif / biotin-A3G peptide binding; higher % means a stronger effect; test concentration not given here; strong numbers were not always called active | Virion infectivity factor (Human immunodeficiency virus type 1 group M subtype B (isolate … | one-dose inhibition, %; IC50 in µM for titrated hits;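 active = above the screen mean plus three standard deviations and confirmed in dose response; inconclusive = results disagree or hit not tested in dose response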;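 also: Vif residues 1-94 fused to GST binding biotinylated APOBEC3G peptide 110-148; 0% = full assay without inhibitor and 100% = GST in place of GST-Vif; retest series ran down from 100 µM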
A1 inh = caspase 3/7 activation in MEF A1-2A-BIM cells, primary screen, A1 inhibitor project, cell-based, luminescence, HTS; Caspase-Glo 3/7 luminescence, 3 h; percent of clofoctol response, vehicle zero; caspase activation, % (concentration not given with the values); hit rate 0.066% among 330,000;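 active = over half of replicate activation scores above 10%, or exactly half above 10 with the replicate mean above 10; inconclusive = replicate mean below 10 yet half the replicates above 10; inactive = over half of replicates below 10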;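 also: wells of about 30 µL received 50 nL stock; many hits fall short of the cut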
T cruzi repl = inhibitors of intracellular T. cruzi growth, primary screen, luminescence, NIH3T3 host cells. AID 1885, 2009. T. cruzi beta-gal in NIH3T3, 90 h. hit rate 1.4% among 300,000. inhibition, % (concentration not given with the values);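 active = mean inhibition across valid replicates above about 55%, limit read from the data; inconclusive = mean below that limit but half or more replicates reach it; inactive = mean below it, under half of replicates reach it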;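 also: signal also drops with host cell toxicity which is not excluded here; 0% = plate median of DMSO wells and 100% = zero luminescence signal; higher percent means less beta-gal luminescence so fewer parasites; stock transfer was 50 nL into about 50 µL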
Calb FLC = C. albicans growth inhibition with fluconazole, primary screen, CaCi-2 strain, Alamar Blue fluorescence; growth inhibition, % (test concentration not listed); hit rate 0.57% among 300,000; C. albicans CaCi-2 (fluconazole-resistant clinical isolate) + fluconazole, 48 h;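 active = most replicates above 75%; inconclusive = exactly half above 75%; inactive = most below 75%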;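 also: all wells also contain fluconazole at 8 µg/ml as a sub-toxic cotreatment; 0% = median of DMSO wells and 100% = median of geldanamycin control wells; wells of about 8 µL received 7.5 nL stock; the first replicate is given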
RanGTP-Impb inh = inhibitors of RanGTP-importin-beta interaction, primary screen, biochemical, FRET, CFP-Ran, YFP-importin-beta, homogeneous; inhibition, % (no concentration beside the values); hit rate 1.1% among 300,000; Ran GTPase (GTP-bound) - importin-beta complex; cell-free CFP-Ran/YFP-importin-beta FRET ratio;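 active = most replicates above 15%; inconclusive = exactly half above 15%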;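 also: 0% = DMSO wells and 100% = Ran loaded with GDP instead of GTP; wells of about 40 µL received 100 nL stock; the first replicate is given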
MLL AF4-AF9 inh = inhibitors of AF4 peptide binding to AF9, primary screen, biochemical, AlphaScreen, biotin-AF4 peptide, FLAG-AF9, single point. hit rate 0.47% among 350,000. AID 651704, 2012. inhibition, % at 10 µM;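 active = every replicate reaching a set inhibition limit, whatever the replicate mean, cut at about 25% in these data; inconclusive = mean inhibition reaches that limit but some replicates miss it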;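 also: 0% = plate neutral control median and 100% = total signal loss; the record names both 10 and 1 µM as test concentration; the first replicate is given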
Target sequence (P42568 whole entry, looked up): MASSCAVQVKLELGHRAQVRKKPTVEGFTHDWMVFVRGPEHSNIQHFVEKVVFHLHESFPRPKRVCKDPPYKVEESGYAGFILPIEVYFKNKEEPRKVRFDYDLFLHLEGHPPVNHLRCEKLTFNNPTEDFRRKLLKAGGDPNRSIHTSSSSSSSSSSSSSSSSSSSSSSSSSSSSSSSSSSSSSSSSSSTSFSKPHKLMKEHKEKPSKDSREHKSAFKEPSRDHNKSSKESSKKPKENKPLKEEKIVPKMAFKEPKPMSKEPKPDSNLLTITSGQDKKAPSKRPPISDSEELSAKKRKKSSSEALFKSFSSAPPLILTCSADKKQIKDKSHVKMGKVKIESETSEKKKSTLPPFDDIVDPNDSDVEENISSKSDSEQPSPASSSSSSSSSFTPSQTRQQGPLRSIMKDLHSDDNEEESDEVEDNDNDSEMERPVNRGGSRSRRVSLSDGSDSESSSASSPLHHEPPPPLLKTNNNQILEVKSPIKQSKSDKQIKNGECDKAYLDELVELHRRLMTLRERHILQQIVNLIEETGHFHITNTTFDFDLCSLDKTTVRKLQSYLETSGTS
Ecoli rRNA inh = reduced GFP signal of wild-type E. coli, primary screen, bacterial rRNA inhibitor project, GFP/RFP fluorescence, OD600, single point | E. coli WT GFP vs humanized-ribosome RFP mutants, 24 h; stronger effect = lower value; DMSO median 0, no signal -100 | GFP signal change (wild-type ribosome), % (concentration not given with the values) | hit rate 1.6% among 350,000;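 active = significant combined selectivity score with lowered wild-type GFP, culture density cut under 30%, mutant RFP and density less affected; inactive = any of these conditions unmet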; also: one replicate is shown; some compounds called inactive have numbers as strong as hits
Ecoli rRNA inh OD600 = further read-out of Ecoli rRNA inh, marked with its call; OD600 change, %; measured here: OD600 growth;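 optical density of the mix in the first replicate; 0 = DMSO median and -100 = no signal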
Ecoli rRNA inh RFP = recorded beside Ecoli rRNA inh, whose call it bears; RFP signal change, %; measured here: RFP humanized mutant strains;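 first replicate; 0 = DMSO median and -100 = no signal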
* hit, by the source's call; ? = inconclusive; . = no result given; & = joins results of further samples.

SMILES	Beta apoptosis	Vif TR-FRET	A1 inh	T cruzi repl	Calb FLC	RanGTP-Impb inh	MLL AF4-AF9 inh	Ecoli rRNA inh	Ecoli rRNA inh OD600	Ecoli rRNA inh RFP
O=C(Cc1ccccc1)NC(Nc1cccc2ccccc12)C(Cl)(Cl)Cl (stereo unspecified)	5	-6%	0.5	36	-34	1.5	.	.	.	.
Cc1cccn2c(=O)c3cc(C(=O)NCCCN4CCCC4=O)n(C)c3nc12	-8	5%	-0.2	8	9	1.1	.	.	.	.
CCOC(=O)CCNCc1ccc(OC)c(OC)c1	7	14%	0.3	-3	7	0.4	4.9	12	1	0.1
COc1ccc(S(=O)(=O)N2CCN(C(=O)N3CCOCC3)C2C)cc1 (stereo unspecified)	.	.	0.9	-3	-3	-0.1	-5.7	0	1	-1.9
CCOc1ccc(S(=O)(=O)N2CCCC(C(=O)NCc3ccncc3)C2)cc1Cl (stereo unspecified)	-2	.	0.4	11	-2	2.1	-1.0	-2	-3	0.8
COc1ccc(NC(=O)COC(=O)CNS(=O)(=O)c2ccc(F)c(F)c2F)cc1OC	.	-1%	0.6	-9	-2	-4.9	.	.	.	.
O=C(CSc1nnc(CNc2cccc(C(F)(F)F)c2)n1Cc1ccco1)NCc1ccco1	-3	32%	-1.6	7	-1	3.1	.	.	.	.
CCOc1c(Cl)cc(C(=O)Nc2ccccc2C(=O)O)cc1Cl	9	-3%	-0.6	2	?	-2.1	.	.	.	.
Nc1nnc(SCC(=O)Nc2ccc(Cl)c(C(=O)O)c2)s1	-1	1%	-0.2	-12	-4	-1.3	-0.8	12	12	1.3
O=C(NCc1ccc(-c2csnn2)cc1)C1CC1	-2	-5%	0.6	7	4	5.6	1.5	3	5	-2.7
CCOc1ccc(NC(=O)CSc2ccc(-c3cccnc3)nn2)cc1	2	-5%	-0.2	1	9	-1.8	-1.6	8	5	1.1
Cc1cccc(N=c2c([N+](=O)[O-])nn(-c3ccc(Cl)cc3)n2O)c1	5	-10%	0.1	51	30	-0.2	-3.2	9	9	1.6
CN(Cc1ccccc1)C(=O)COC(=O)CCC(=O)c1ccc(Cl)cc1	5	-5%	-1.5	.	.	.	-3.0	5	8	1.2
Cc1cc2c(cc1S(=O)(=O)N1CCCC1)n(C)c(=O)c(=O)n2C	-8	-6%	0.4	5	-8	3.7	-4.3	8	10	-2.5
N#Cc1nnn(-c2ccc(Cl)cc2)c1N	1	-5%&23%	0.1	-7	-5	4.3	.	.	.	.
C=CCc1cc(Cl)ccc1OCCCn1ccnc1	3	.	-0.1	57*	-17	1.0	4.8	-56	-81	-21
CCN(CC)c1ccc2cc(C(=O)NCc3ccc(F)cc3)c(=N)oc2c1	2	.	1.6	4	-5	99*	-7.4	6	9	-0.4
O=C(O)C1CC=CCC1C(=O)Nc1ccccc1C(=O)N1CCN(c2ccccc2)CC1 (stereo unspecified)	-6	-5%	0.1	1	-13	4.4	.	.	.	.
O=C(Cn1c(=O)oc2cc(S(=O)(=O)N3CCCC3)ccc21)N1CCN(c2ccccc2)CC1	-3	1%	-0.9	-10	-1	?	-5.7	8	5	2.0
CCOC(=O)C1(Cc2ccc(Cl)cc2)CCN(Cc2cnc(N)nc2)CC1	-1	-8%	0.7	-5	6	3.7	0.2	-3	-9	-1.3

Next part, overlapping the part above by six compounds.
SMILES	Beta apoptosis	Vif TR-FRET	A1 inh	T cruzi repl	Calb FLC	RanGTP-Impb inh	MLL AF4-AF9 inh	Ecoli rRNA inh	Ecoli rRNA inh OD600	Ecoli rRNA inh RFP
N#Cc1nnn(-c2ccc(Cl)cc2)c1N	1	-5%&23%	0.1	-7	-5	4.3	.	.	.	.
C=CCc1cc(Cl)ccc1OCCCn1ccnc1	3	.	-0.1	57*	-17	1.0	4.8	-56	-81	-21
CCN(CC)c1ccc2cc(C(=O)NCc3ccc(F)cc3)c(=N)oc2c1	2	.	1.6	4	-5	99*	-7.4	6	9	-0.4
O=C(O)C1CC=CCC1C(=O)Nc1ccccc1C(=O)N1CCN(c2ccccc2)CC1 (stereo unspecified)	-6	-5%	0.1	1	-13	4.4	.	.	.	.
O=C(Cn1c(=O)oc2cc(S(=O)(=O)N3CCCC3)ccc21)N1CCN(c2ccccc2)CC1	-3	1%	-0.9	-10	-1	?	-5.7	8	5	2.0
CCOC(=O)C1(Cc2ccc(Cl)cc2)CCN(Cc2cnc(N)nc2)CC1	-1	-8%	0.7	-5	6	3.7	0.2	-3	-9	-1.3
CCOc1ccc(NS(=O)(=O)c2cc(C(=O)NCC3CCCO3)ccc2Cl)cc1 (stereo unspecified)	1	-4%	0.3	6	-1	2.0	2.1	0	-4	1.2
O=C(COc1ccccc1)Nc1nccs1	-2	0%	-6.9	-21	0	1.8	0.8	3	2	17
N#Cc1ccccc1NC(=O)COC(=O)CN1C(=O)C2CCCCC2C1=O (stereo unspecified)	-2	9%	-1.0	.	.	.	-3.1	2	4	-2.1
COc1ccc(CNC(=O)C2CCCN2C(=O)NCc2ccccc2)cc1 (stereo unspecified)	-9	.	-0.3	-5	-11	-1.8	-11	20	23	-2.2
CCOc1cc(Br)c(COc2ccc(C)nc2[N+](=O)[O-])cc1OCC	-2	-1%	1.1	15	4	-1.8	-3.3	-7	-6	-1.7
COc1ccc(N2C(=O)C3C4C=CC(C4)C3C2=O)c(OC)c1 (stereo unspecified)	1	2%	-1.6	10	8	1.6	.	.	.	.
CCc1cc2c(=O)nc3n(c2s1)Cc1ccccc1/C3=C(/O)c1cccc([N+](=O)[O-])c1	-2	29%	-0.5	-4	-4	-116	.	.	.	.
CC(=O)N1CCN(c2ccc(C(N)=O)cc2[N+](=O)[O-])CC1	-1	-2%	1.7	-13	-6	-2.2	-1.3	1	3	1.2
Cn1c(=O)c2c(nc(SCC(=O)NCc3ccc4c(c3)OCO4)n2Cc2ccc(Cl)cc2)n(C)c1=O	5	26%	-2.2	7	13	3.5	.	.	.	.
CC1(C)OC(=O)C(=CNc2ccccc2)C(=O)O1	-9	5%&-5%	0.2	-14	35	-0.7	.	.	.	.
O=C(COC(=O)c1ccc(S(=O)(=O)N2CCCC2)cc1)Nc1ccccc1	-5	.	-0.1	.	.	.	-3.1	-4	22	-5.9
CC(=O)Nc1ccc(S(=O)(=O)NCC(=O)NNC(=O)c2csc(N3CCOCC3)n2)cc1	-2	12%	0.7	-10	9	.	-0.4	2	9	1.8
COc1cc(NC(=O)CSc2ccccc2)c(C(=O)O)cc1OC	-4	.	-0.3	-14	-3	4.4	-2.0	0	-2	0.9
CCCOc1ccc(CN(CCC#N)C(=S)NC(=O)c2ccccc2)cc1	14	11%	0.5	4	-2	-0.2	.	.	.	.
O=C(Nc1ccon1)c1nc[nH]c1C(=O)N1CCc2ccccc2C1	-1	.	-0.8	.	.	.	-3.7	15	13	-10
CC(=O)NC(CC(=O)N1CCCC1)c1ccccc1 (stereo unspecified)	-1	0%	-0.4	-13	-4	6.6	1.8	0	11	-1.3
CCn1c(N)c(C(=O)NC)sc1=S	-3	6%	-0.1	-11	2	9.4	.	.	.	.
Cc1cc(C(=O)COC(=O)c2ccco2)c(C)n1Cc1ccco1	-3	7%	-5.9	8	-5	2.5	0.4	-17	-18	-0.4
Cc1cc(C)c(C#N)c(SCS(=O)c2ccc(C(C)(C)C)cc2)n1 (stereo unspecified)	1	4%	-0.3	17	-3	?	.	.	.	.
CC(C)Cn1c(=O)c2ccccc2c2ccccc2c1=O	-3	3%	0.1	10	-3	3.5	-1.4	-28*	-11*	5.3*
CCCCCOc1ccc(C(=O)NCC(=O)NCC(=O)OCC)cc1	-9	22%	-0.1	-3	12	-1.8	.	.	.	.
O=C(O)CC/C(=N\NC(=O)CNC(=O)/C=C/c1ccccc1)c1ccccc1	-3	-6%	1.3	-4	2	-2.7	0.8	4	-3	-2.2
COc1ccc(N(CC(=O)N/N=C/c2cccs2)S(=O)(=O)c2ccc(OC)c(OC)c2)cc1	-3	2%	0.8	-2	-8	-4.3	3.8	5	4	1.6
CCCCN(CC(=O)NCCOC)C(=O)Cn1nnc2ccccc21	-4	1%	0.5	-17	4	-3.5	1.5	8	6	1.8
S=c1[nH]nc(Cc2ccccc2)n1-c1ccccc1	-5	-8%	-0.6	7	20	2.5	.	.	.	.
Nc1nc2ccccc2n1C(=O)c1cccs1	0	.	-7.0	-3	40	-0.6	1.1	20	8	-4.3
CC(=O)OC(C)C(=O)NS(=O)(=O)c1ccc(C)cc1 (stereo unspecified)	3	4%	0.9	-18	?	-2.6	-1.6	6	5	-1.2
COc1cccc(CN2CCSCC2)c1OC	-1	.	-0.5	-6	3	5.0	1.0	1	7	-3.6
COc1cccc(N2CCN(C(=O)NC3CCCCC3)CC2)c1	4	-4%	-0.5	1	?	6.1	.	.	.	.
COc1ccc(CNC(=O)CN=C2NC(=O)C(c3ccccc3)(c3ccccc3)N2)cc1	10	6%	0.2	3	1	1.2	.	.	.	.
O=C(Oc1ccc(/C=N/n2cnnc2)cc1)c1cccc([N+](=O)[O-])c1	-11	4%	-1.0	0	19	-2.2	0.5	4	2	1.1
O=C(NCc1ccccc1)C(=O)NCC1OCCN1S(=O)(=O)c1ccc(Br)cc1 (stereo unspecified)	-5	0%	0.9	-1	1	0.8	-1.9	4	10	-0.4
CSc1ncc(Cl)c(C(=O)Nc2ccc(C)c(C)c2)n1	2	-9%	-0.9	-9	0	5.4	0.8	2	9	-1.3
C=CCNC(=O)COCc1cc(-c2ccc3c(c2)OCO3)on1	-3	1%	-2.2	-5	3	0.4	-4.4	-3	1	0.1
COc1ccc(NC(C)=O)cc1NC(=O)CSc1nnc(-c2ccccn2)n1C	0	2%	0.0	-5	-7	-2.4	.	.	.	.
O=C(O)Cn1c(=O)c(F)cn(C2CCCO2)c1=O (stereo unspecified)	-5	.	-0.2	-14	-5	-1.2	-0.7	12	18	-1.4
CCC1(O)CC(C(=O)OC)=NN1C(=O)c1ccccc1 (stereo unspecified)	-5	1%	0.3	-5	48	1.4	-0.4	16	9	1.8

Source: PubChem BioAssay

Only part of the results is shown. The share of hits here may be higher or lower than overall.
